MgrA DNA FP: S. aureus MgrA activity modulators, primary screen, biochemical, S. aureus Newman, fluorescence polarization. MgrA-DNA binding. inhibition, %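 (about 10 µg/mL by stock and volumes)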. 0.13% of 84,000 active. AID 602314, 2012;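 active means above 50% in either of two replicates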;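 further: 0% = protein plus DNA without compound and 100% = DNA alone without protein; higher means less MgrA bound to DNA so lower polarization; one replicate is shown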
S aureus helic: inhibitors of S. aureus replicative helicase, primary screen, biochemical, fluorescence unwinding readout; 0.05% of 120,000 active; purified S. aureus helicase, fluorescence unwinding assay; about half of the hits fall short of the stated cut; replicative DNA helicase (DnaC/DnaB), Staphylococcus aureus; inhibition, %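 (tested at about 80 µM)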;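 active means both duplicates at 50% or more, or one of them with a favoured structure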;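 further: 0% = mean of negative control wells and 100% = mean of positive control wells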
Numbers without * were called inactive; / = no result given; & = joins results of further samples. The list is partial. The share of hits here may be higher or lower than overall.

mol | MgrA DNA FP | S aureus helic
COC(=O)C1=C(N)Oc2cc(C)[nH]c(=O)c2C12C(=O)N(CC(C)C)c1ccccc12 (stereo not given) | / | -1
CCNC1(c2cccc(Cl)c2)CCC1 | -1.9 | 15
Oc1ccc(CN2CCN(c3cccc(C(F)(F)F)c3)CC2)cc1 | -1.8 | 3
O=C(/C=C/c1ccccc1)N1CCN(Cc2cccc(F)c2)CC1 | 1.3 | 11
N#CCCn1cc(C(=O)n2nnc3ccccc32)c(-c2ccccc2)n1 | 2.1 | 10
C#C[C@]1(O)CCC2C3CCC4=CC(=O)CC[C@]4(C)C3CC[C@@]21C (stereo not given in full) | 4.7 | /
Cc1nc2cc(Cl)ccc2c(=O)n1-c1ncn[nH]1 | 1.1 | /
O=c1[nH]c(=S)[nH]c(O)c1CN1CCOCC1 | -2.4 | 11
O=C1/C(=C/c2cccnc2)N2CCC1CC2 | / | 18
CCN1CCC2(CC1)N=C(c1ccccc1)C(=S)N2 | / | -32
COc1ccc(CCNCc2ccccc2)cc1 | 0.1 | 1
C[C@@H]1CC[C@H]2[C@@H](C)C(=O)O[C@@H]3OC4(C)CC[C@@H]1[C@]32OO4 | 2.9&0.5 | /
CCC(=O)OC1(c2ccccc2)C(C)CN(C)CC1C (stereo not given) | -0.2 | 3
Cc1ccc(P2(=S)N=C3c4ccccc4CN3c3cc(N(C)C)ccc32)o1 (stereo not given) | / | 11
O=[N+]([O-])c1cccnc1N1CCN(CCO)CC1 | -0.6 | /
CCSc1nnc(C(N)Cc2ccccc2)o1 (stereo not given) | -3.3 | 2
CCOC(=O)C(O)(c1ccc(NC(=O)NC)cc1)C(F)(F)F (stereo not given) | / | -24
C[C@@H](N)[C@H](O)c1ccccc1 | 5.8 | /
Oc1ccc2c3c1OC1[C@@H](O)CC[C@@]4(O)[C@@H](C2)N(CC2CCC2)CC[C@]314 (stereo not given in full) | 2.9 | /
CNCCc1nc(N)n[nH]1 | / | 0
COc1cc(OC)c(C=C2C(=O)NC(=S)NC2=O)c(OC)c1 | 4.5 | /
Nc1ccc(Sc2ccc(N)cc2)cc1 | 1.2 | 7
CCS(=O)(=O)N1CCC(C(=O)N2CCC3(CC2)OCCO3)CC1 | / | 4
NCCc1cccc(Cl)c1 | / | -14
C[C@]12CCC3C(CC[C@]4(O)C[C@@H](O)CC[C@]34C=O)[C@@]1(O)CCC2C1=CC(=O)OC1 (stereo not given in full) | 1.1 | /
N#Cc1c(N)[n+]([O-])c2ccccc2[n+]1[O-] | 18 | /
OC(c1ccccc1)(c1ccccc1)C1CCNCC1 | -0.2&3.6 | /
COc1cccc(C=C2C(=O)NC(=O)NC2=O)c1 | / | 5
C=CCCN1C(=O)CN=C(c2ccccc2)c2ccccc21 | -2.6 | /
CN1CCN(Cc2c(Cl)cccc2Cl)CC1 | -6.7 | -3
CC1=C2[C@@H]3OC(=O)[C@H](C)C3CC[C@@]2(C)C=CC1=O (stereo not given in full) | / | 17
Cc1ccc(C(=O)CN(C)C2CCCCC2)cc1 | / | 2
O=C(NCc1ccccn1)c1ccccc1Cl | -1.6 | /
CN1CCN(C(=O)Cc2ccc(F)cc2)CC1 | -1.8 | 9
O=C(OCc1nc2c(oc3ccccc32)c(=O)[nH]1)C(O)(c1ccccc1)c1ccccc1 | / | 22
CCN1CCN(Cc2cccc(Br)c2)CC1 | 0.8 | -1
Cc1ccc(-c2nc(Cn3cc(C=C4C(=O)N(C)C(=O)N(C)C4=O)c4ccccc43)no2)cc1 | 1.8 | 4
O=C1c2ccccc2-c2ccc3ccccc3c21 | -1.9 | /
CC(Cc1ccccc1)NC(=O)c1ccc(N)cc1 (stereo not given) | -0.2 | 7
CC12CCC(=O)N1C1CCCCC1N2 (stereo not given) | -0.8 | 7
Cc1ccc(-n2c(C)cc(P(=S)(N3CCOCC3)N3CCOCC3)c2C)c(C)c1 | / | -2
CCOP(=S)(OCC)C(Nc1ccccc1)c1ccccc1 (stereo not given) | 0.8 | -7
CN1/C(=C2\C=NN(C)P2(=S)N2CCCC2)C(C)(C)c2ccccc21 (stereo not given) | / | 16
CCN1CCN(Cc2nnnn2C(C)(C)C)CC1 | 14 | -6
CCCCCCCCCCCCCC(=O)O[C@@H]1[C@@H](C)[C@@]2(O)[C@@H](C=C(CO)C[C@]3(O)C(=O)C(C)=C[C@@H]23)[C@@H]2C(C)(C)[C@]12OC(C)=O | 4.0 | /
CN(Cc1ccccc1)C(=O)CN1CCCC1=O | -0.5 | 9
Clc1ccc(C2NN=C3C4CCN(CC4)C32)cc1Cl (stereo not given) | 4.9 | /
CC(C)OC(=O)C1C(=O)NC2(C)CC1c1ccccc1O2 (stereo not given) | -1.4 | -5
COc1ccc(CC2NCCc3cc(OC)c(OC)cc32)cc1OC (stereo not given) | -0.8 | 15
C[N+]12CN3CN(CN(C3)C1)C2 | -0.8 | 9
CN1CCN(c2ccccc2NC(=O)C2CCC2)CC1 | / | -11
O=C1CC(=O)N(c2ccccc2)C(=O)N1c1ccccc1 | -3.9 | 9
COc1ccc2[nH]cc(CCN(C)C)c2c1 | 0.8 | /
FC(F)(F)c1ccc(N2CCNCC2)nc1 | -1.7 | /
CO[C@@H]1C[C@@H](C[C@H]2CC[C@H](C)[C@H]([C@@H](C)C(=O)O)O2)O[C@]2(O[C@](C)([C@H]3CC[C@@](C)([C@@H]4O[C@@H]([C@H]5O[C@@](O)(CO)[C@H](C)C[C@@H]5C)C[C@@H]4C)O3)C[C@H]2C)[C@@H]1C | 0.8 | /
CC1(C)C(C(=O)Nc2nccs2)C1(C)C | -1.5 | 6
CC(C)(C)P(=O)(NCc1ccccc1)c1ccccc1 (stereo not given) | / | -10
CC(C)NCC(O)c1ccc(N)c(C#N)c1 (stereo not given) | 2.3 | /
CC12CCC(O)CC1CCC1C2CCC2(C)C(C(=O)O)CCC12 (stereo not given) | / | 2
O[C@H]1CC2CCC1N(Cc1ccccc1)C2 (stereo not given in full) | 0.9 | /

Later entries.
Screens in order – MgrA DNA FP, S aureus helic
O=C(c1ccc(Cl)cc1)N1CCOCC1
  4.7, 0
CC(c1ccccc1)N1C(=O)NC(=O)/C(=C/c2coc3ccccc3c2=O)C1=O (stereo not given)
  10, 17
Cc1ccc(/C=C2\CC3C4CC=C5CC(O)CCC5(C)C4CCC3(C)C2O)o1 (stereo not given)
  /, 32
CCNC(=S)N1CCn2cccc2C1c1cccnc1 (stereo not given)
  1.2, 3
COc1ccc(OC)c(NC(=S)NCCc2cnc[nH]2)c1
  0.3, 6
Cc1cccc2nc(CSC(=S)NCc3cccnc3)cn12
  /, -27
CN1CCC2(CCN(Cc3ccccc3)C2)C1 (stereo not given)
  -2.2, 0
N#CC(c1ccccc1)c1ccccc1
  -3.2, 10
O=C1c2ccccc2C(=O)N1CCN1CC2CC(C1)c1cccc(=O)n1C2 (stereo not given)
  -1.4, 7
CC(=O)Nc1ccc(OP2(=O)COc3ccccc3OC2)cc1
  /, -31
CN1C(=O)C(=Cc2ccccc2)C(=O)N(C)C1=O
  3.0, -2
Cc1ccccc1N1C(=O)NC(=O)C(CCc2ccncc2)(Cc2ccc3c(c2)OCO3)C1=O (stereo not given)
  -1.4, -1
BrCc1ccc2nsnc2c1
  /, -7
Cc1[nH]c2ccccc2c1CCN
  -1.7, 10
O=C(c1ccc(F)cc1)N1CCC2(CC1)OCCO2
  -0.6, 5
CN1C(=O)CC(=O)NC1=O
  /, 9
NCCn1ccc2ccccc21
  /, 6
O=c1cccc2n1C[C@H]1CNCC2C1
  -4.6, /
CO[C@@H]1C=C2CCN(C)[C@@H]2C2c3cc4c(cc3C(=O)OC21)OCO4 (stereo not given in full)
  -0.5, /
C=C1[C@@H](C)[C@H]2[C@H](Cc3ccccc3)NC(=O)[C@]23OC(=O)/C=C/[C@H](O)CCC[C@@H](C)C/C=C/[C@H]3[C@@H]1O
  1.1, /
CSc1nc(-c2ccc(Cl)cc2)nn1C(=O)N(C)C
  0.7, /
Cc1cc(OC(=O)N(C)C)cc(C)c1Cl
  -2.1, 16
CCCCC/C=C\C[C@@H](/C=C/C=C\C/C=C\CCCC(=O)O)OO
  2.0, /
C=CCN1C(=O)NC(=O)/C(=C\c2ccccc2)C1=O
  12, 6
COc1ccc(C)cc1CCNCc1ccncc1
  /, -7
CCC12CN3CN(C1)CC(CC)(C3)C2O (stereo not given)
  16, 10
CC(=O)OC1(c2ccccc2)CCN(C)C2CCCCC21 (stereo not given)
  0.5, -2
CCC1C(c2ccccc2)NC(c2ccccc2)CC1(O)c1ccc(F)cc1 (stereo not given)
  -2.1, -1
CC1=C2C[C@H]3[C@@H](CC=C4C[C@@H](O)CC[C@@]43C)[C@@H]2CC[C@]12O[C@@H]1C[C@H](C)CN[C@H]1[C@H]2C
  0.7, /
CC(=O)Nc1ccc(C2N3CCCN23)cc1 (stereo not given)
  -3.0, -5
O=C1C2CCN(CC2)C1Cc1ccc(OCCOc2ccccc2)cc1 (stereo not given)
  /, 13
CCCCn1c(N)c(C(=O)NCCC)c2nc3ccccc3nc21
  /, -2
NCCc1csc2c1CCCC2
  -1.2, 11
Brc1ccc2[nH]cc(CNCCN3CCOCC3)c2c1
  /, -9
NC(N)=N/N=C/c1ccc2c(c1)OCO2
  /, -5
COc1cc(C=C(C#N)C#N)cc2c1OCO2
  6.4, -3
NCCc1c[nH]c2ccc(O)cc12
  0.7&5.9, /
CC1CN=C(NCc2ccccc2)S1 (stereo not given)
  /, 7
Cc1ccc2c(c1)C1CN(C)CCC1N2C(=O)c1ccco1 (stereo not given)
  /, -17
c1ccc2[nH]c(C3CCCNC3)nc2c1 (stereo not given)
  -4.7, 10
COC(=O)C1=CCCN(C)C1
  4.7&3.5, /
CC1CCCCC1NC(=O)c1cc2cccnc2n(Cc2ccccc2)c1=O (stereo not given)
  /, 4
CN(C)C(=O)Oc1cc(OC(=O)N(C)C)cc(C(O)CNC(C)(C)C)c1 (stereo not given)
  0.2, /
N#CC1=C(SCc2ccccc2)SCNC1=O
  /, -22
CCOC(=O)C1=C(C)OC(N)=C(C#N)C12C(=O)N1c3c(cccc32)C(C)CC1(C)C (stereo not given)
  -2.5, 6
CC1(C)COC(Nc2cccc(Cl)c2)=N1
  2.2, -15
CCN(CC)C(=O)c1ccc(NC(=O)c2ccccc2)cc1
  1.2, 3
COc1ccc(C(=O)OC2C[C@H]3CC[C@@H](C2)N3C)cc1OC (stereo not given in full)
  -4.2, /
Cc1[nH]c2ccccc2c1CCNCc1ccco1
  /, 5
Cc1cc(N2CCNCC2)nc2ccccc12
  -1.7, 16
O=C(COc1ccccc1Cl)N(c1ccccc1Cl)C1CN2CCC1CC2 (stereo not given)
  -3.0, -5
CN(C)C(Cc1ccc(Cl)cc1)C(=O)c1ccccc1 (stereo not given)
  /, -4
COc1cc(NC2=NCCS2)c(Cl)cc1Cl
  -2.0, /
COc1ccc2c3c([nH]c2c1)C(C)=NCC3
  0.3&-2.2, /
C/C(=C(/C#N)P(=S)(N1CCOCC1)N1CCOCC1)N1CCCC1
  /, 11
CCOC(=O)C1=C(C)OC(N)=C(C#N)C12C(=O)Nc1ccc(C)cc12 (stereo not given)
  -1.4, 8
CCCCN1CCC(C#N)(Nc2ccccc2)CC1
  1.8, 6
COC(=O)CC1=C(C(=O)OC)C2(C(=O)Nc3ccc(F)cc32)C(C#N)=C(N)O1 (stereo not given)
  -1.4, 10
CCC1(C)CC2(CCCN(CCO)C2)CCO1 (stereo not given)
  /, 29
COP1(=S)C2=C(N3CCCC3)CCCC2=NN1c1ccccc1 (stereo not given)
  /, -14

The listing continues.
Screens in order – MgrA DNA FP, S aureus helic
C/C(=C\c1ccc(F)cc1)[N+](=O)[O-]
  3.1, /
CCN1CCC(NC2C3CC4CC(C3)CC2C4)CC1 (stereo not given)
  -0.5, 9
CCOc1cc(C=C2C(=O)NC(=O)NC2=O)cc(Cl)c1O
  38, 0
N#Cc1cc(F)c(N2CCCC2)cc1Cl
  -3.1, -10
CC[C@@]1(O)C[C@H](O[C@H]2C[C@H](N(C)C)[C@H](O)[C@H](C)O2)c2c(cc3c(c2O)C(=O)c2c(O)ccc(O)c2C3=O)[C@H]1C(=O)OC
  24, /
CCOc1ccc(C2C(C#N)=C(N)Oc3c2c(=O)oc2ccccc32)cc1OCC (stereo not given)
  0.3, /
O=C1NC(=O)C(CCc2ccncc2)(c2ccccc2)C(=O)N1
  0.5, -4
O=c1c2ccccc2nc(CN2CCOCC2)n1-c1cccc(C(F)(F)F)c1
  -1.5, 1
CC(C)=CC1C(C(=O)OCc2cccc(Oc3ccccc3)c2)C1(C)C (stereo not given)
  3.6, /
C/C(=N\NC(N)=S)c1ccc(Cl)cc1
  /, -4
Clc1ccc(N/N=C2/CN3CCC2CC3)c(Cl)c1
  /, 18
CN1CCCN(C(=O)COc2ccc(C#N)cc2)CC1
  -0.6, -26
